Bioassay records deposited in PubChem BioAssay by PCMD.
Biofilm kill mix: clotrimazole potentiators killing C. albicans biofilm, primary screen, 4-compound mixtures; C. albicans biofilm persisters + clotrimazole, fluorescence viability; primary screen in compound mixtures of four per well; inhibition, % at 7.6 µM; 120,000 compounds, 0.02% hits; AID 1242, 2008;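 active = inhibition above 30.3% in the primary screen of four-compound pools, then above 30% when the compound was retested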;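 also: compounds exposed to preformed 24 h biofilms for 48 h; the number belongs to the whole pool; some results filed as inactive read as strong as hits; inactives centre near 12; 0% = biofilm with clotrimazole alone and 100% = kill control; retested singly at about 60 µM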
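Test system: C. albicans CAF4-2 wild-type biofilms; buffer or medium: RPMI/MOPS medium, pH 7.0; schedule: 24 h biofilm formation, then 48 h compound exposure, 37 °C; detection: Alamar Blue fluorescence; measure: percent inhibition of biofilm viability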
Starred values were filed as active, the others as inactive.

SMILES	Biofilm kill mix
O=C(O)CSC1CC(=O)N(c2cccc(Cl)c2)C1=O (configuration not stated)	-7
CCOC(=O)c1sc(N=NC2=C(O)CC(C)(C)CC2=O)c(C(=O)OCC)c1C	-2
CCCCC(=O)Nc1nnc(-c2ccco2)o1	5
C=CCC(C=C)[N+]1(CC(=O)OC)CCCCC1 (configuration not stated)	-5
CCOc1ccc(CCNC(=O)c2ccc(C)c(N3CCCC3=O)c2)cc1OCC	16
Nc1cc(-c2ccc(Br)cc2)[nH]n1	10
CCOc1ccc(-n2nc3c(=O)n(CCN4CCCCC4)nc(C)c3c2C)cc1	9
C/C(=N\Nc1ccccc1)c1c(O)cc(C)oc1=O	18
Cc1cccc(NC(=S)N(c2ccccc2)C(C)C)c1C	23
CCOc1ncccc1C(=O)Nc1ccc(OC)c(S(=O)(=O)N2CCCCC2)c1	7
COc1cc(Br)c(CCNC(=O)Cc2ccccc2)cc1OC	22
Cc1c(Cl)cccc1NC(=S)N1CCC(C(N)=O)(N2CCCCC2)CC1	11
C=CCNC(=O)CSc1n[nH]c(-c2cc(Cl)ccc2OC)n1	14
CC(OC(=O)CCN1C(=O)c2cccc([N+](=O)[O-])c2C1=O)C(=O)Nc1cc(Cl)cc(Cl)c1 (configuration not stated)	13
Cc1cccc(Nc2nnc(SCC(=O)NCc3cccs3)s2)c1C	12
CCOC(=O)C1(CCc2ccccc2)CCN(C(=O)c2ccoc2)CC1	10
N#CCc1nn(-c2ccc(F)cc2)c(N)c1C#N	8
Cc1cc(NC(=O)c2ccoc2C)no1	8
CC1CCN(c2nc3nonc3nc2Nc2ccc(F)cc2)CC1	8
Cc1ccc(C(=O)CC2C(=O)N(c3ccccc3)C(=S)N2c2ccccc2)cc1 (configuration not stated)	9
Nc1nc2c(C(=O)N3CCOCC3)nnn2c2ccccc12	4
COc1cc(OC)cc(C(=O)NCCCN2CCOCC2)c1	11
Cn1ccnc1C(=O)c1cc(SCC(=O)N2CCOCC2)nc2ccccc12	10
O=C(CCC(=O)Nc1ccc(Cl)cc1Cl)N/N=C/c1ccc([N+](=O)[O-])o1	21
O=C(NC(=S)NN1CCCCC1c1cccnc1)c1ccc(Br)cc1 (configuration not stated)	11
CCCNC(=O)c1c(CSc2ccccc2)noc1C(=O)NCc1ccccc1	34
CCOC(=O)/C=C1\SCC(=O)N1CC(=O)NCCOC	13
COc1ccc(S(=O)(=O)NCC2CCCN(Cc3ccccc3C)C2)cc1 (configuration not stated)	14
O=C(Oc1cccc2ccccc12)c1ccncc1	8
O=C(O)c1cccc(Oc2ccccc2[N+](=O)[O-])c1	11
CCc1nc(SCC(=O)c2c[nH]c3ccccc23)n[nH]1	-15
CC(C)c1ccc2[nH]c(O)c(N=NC(=S)NCCc3ccccc3)c2c1	8
O=C(CCC(=O)Nc1ccc(Cl)cc1Cl)NNC(=O)Nc1ccccc1	-16
Cc1ccc(-c2[nH]c3cc(C(=O)NCCCn4ccnc4)ccc3c(=O)c2O)cc1	16
CC1CN=C(Nc2cccc(S(=O)(=O)N(C)C)c2)S1 (configuration not stated)	4
CCC1=NN=C(c2ccc(F)cc2)C(c2c[nH]c3ccccc23)N1O (configuration not stated)	1
CC1=Nc2ccccc2N=C(NC(=O)CN2CCN(c3ccccc3)CC2)C1c1ccccc1 (configuration not stated)	16
O=C1NCCc2cc3c(cc21)OCO3	11
Nc1nc(Cl)cc(NCCc2ccc(O)cc2)n1	7
Cc1nc(C)c(CC(=O)N2CCc3c([nH]c4ccccc34)C2c2ccccn2)s1 (configuration not stated)	7
Cc1ccc(NC(=O)COC(=O)Cn2cnc3c2c(=O)n(C)c(=O)n3C)c(Cl)c1	2
CCOc1ccc(-c2cc(N)n(S(=O)(=O)c3cccc4nsnc34)n2)cc1	18
CCOC(=O)NC(=O)CSc1nnc(SCCC(=O)O)s1	10
CCOC(=O)c1c(NC(=O)CSc2nnc(-c3c[nH]c4ccccc34)n2CCOC)sc2c1CCCC2	1
COc1cc(C(=S)N2CCOCC2)cc(OC)c1O	9
CC1CCCCC1NC(=O)CCn1c(=O)oc2ccccc21 (configuration not stated)	17
CN(C(=O)COC(=O)c1ccc(S(=O)(=O)N2CCOCC2)cc1)C1CCCCC1	12
CSc1cccc(NC(=O)/C=C/c2cccc(Cl)c2)c1	3
NC(=O)C1CC(=O)N(c2ccc(OCc3ccc(Cl)cc3Cl)cc2)C1 (configuration not stated)	27
COc1cc(OC)cc(C(=O)Nc2cccnc2)c1	19
Cc1ccccc1C(=O)NC(=S)Nc1ccccc1N1CCCC1	18
COc1ccc(CCN(C(=O)Cn2nnc3ccccc32)C(C(=O)NCC2CCCO2)c2ccncc2)cc1OC (configuration not stated)	18
Cc1nc(S/C(=C\c2ccc(-c3ccc(C(=O)O)c(Cl)c3)o2)C(=O)O)n[nH]1	16
CCn1nnnc1NC(=O)c1cc(OC)c(OC)c(OC)c1	9
CC(C)C(=O)Nc1ccc(NC(=O)c2ccccn2)cn1	14
COc1cccc(OC)c1-c1nn(-c2ncc(C(F)(F)F)cc2Cl)c(=O)o1	20
CC(C)N(N=Nc1ccc([N+](=O)[O-])cc1)C(C)C	19
Nc1cc(S(=O)(=O)Nc2ccc(Cl)cc2)ccc1N1CCOCC1	3
c1ccc(Cc2noc(CN3CCC(CN4CCOCC4)CC3)n2)cc1	5
CC(C)CC(NC(=O)c1ccc(Cl)cc1)C(=O)OCc1cc([N+](=O)[O-])cc2c1OCOC2 (configuration not stated)	15

(more compounds)
SMILES	Biofilm kill mix
CC(=O)NC(=S)Nc1ccc2oc(=O)ccc2c1	-4
Cc1ccc(NC(=O)C2CCC(=O)N2)cc1C (configuration not stated)	19
O=[N+]([O-])c1ccc2c(c1Nc1ccccc1Cl)=NC1(CCCCC1)N=2	15
Cc1cc(C)c(OCC(=O)Nc2nc(-c3ccccn3)cs2)c(C)c1	10
CC(C)N(C(=O)NC(=O)Nc1ccccn1)S(C)(=O)=O	7
CCCCOc1ccc(CON(C(C)=O)C(C)=O)cc1Cl	20
O=C(CCc1nnc(C2CCCCC2)o1)NCCCOc1cccnc1	17
CCc1cc(/C(Cc2ccccn2)=N\Nc2ccccc2)c(O)cc1O	23
O=C(N/N=C/c1cccc([N+](=O)[O-])c1)c1cccc(Br)c1	14
COCCCNC(=O)CCCn1c(=O)c2ccccc2n(Cc2cccc([N+](=O)[O-])c2)c1=O	15
Cc1cc(C)c(Nc2ncnc(N)n2)c(C)c1	11
COc1ccc(-c2ccnc(-c3ccc(O)cc3)n2)cc1	-4
O=C(O)C1C2C=CC(O2)C1C(=O)NCCc1cccc(Cl)c1 (configuration not stated)	5
CC(=O)Nc1ccc(NC(=O)CCNS(=O)(=O)c2cccc3nsnc23)cc1	7
CCN(CC)C(=O)CCSc1nnc(-c2ccco2)o1	4
S=C(Nc1ccccn1)NC1CCCC1	14
Cc1nnc(SCc2cc(=O)[nH]c(N3CCN(C)CC3)n2)s1	9
O=C1NC(c2ccccc2)=N/C1=C/c1ccco1	13
CCCn1c(=O)c2c(nc3n2CCN3Cc2ccco2)n(C)c1=O	15
Cc1ccc2nc(/N=C(\N)NC(=O)N3c4ccccc4Sc4ccccc43)nc(C)c2c1	8
Nc1ccccc1C(=O)N1CCCC1	12
CN=c1sc(C(=O)Nc2ccccc2)c(C)n1C	3
Cc1ccc2nsnc2c1NC(=O)c1cccc([N+](=O)[O-])c1	11
COc1nc(SC)nc(Cl)c1Cc1ccc(OC(C)C)cc1	-15
O=C(O)C1=C[C@H](c2cccs2)C[C@H](OCCCCO)O1	12
CCc1ccc(OCc2cnc(Cl)s2)cc1	6
O=C(N/N=C/c1ccccc1O)/C(=C/c1ccccc1)CCO	7
O=C(Nc1ccc(F)cc1)Nc1ccccc1C(=O)NCCN1CCNC1=O	16
COc1ccc(C(=O)N(NC(=O)Oc2ccccc2)C(C)(C)C)cc1	2
COc1ccccc1C1=NOC(COC(=O)c2ccc([N+](=O)[O-])cc2)C1 (configuration not stated)	20
O=C(NCC(=O)N(CCN1CCOCC1)C(C(=O)NC1CCCC1)c1ccccc1)c1cccs1 (configuration not stated)	10
CCOc1ccc(Nc2ncnc3ccc([N+](=O)[O-])cc23)cc1	0
CC1CCCN(C(=O)c2ccc3c(=O)n(C4CCCC4)c(=S)[nH]c3c2)C1 (configuration not stated)	11
COc1cccc(CN2CCNC(=O)C2CC(=O)NCc2cn3cccc(C)c3n2)c1OC (configuration not stated)	13
COc1ccc(CCNC(=O)CSc2nc(C)cs2)cc1	20
O=C(Nc1cccc(S(=O)(=O)N2CCCC2)c1)c1cc(-c2ccccn2)nc2ccccc12	-1
COc1cc(C(=O)NC(=S)Nc2ccccc2[N+](=O)[O-])cc(OC)c1OC	1
O=C(O)c1oc2ccccc2c1CSCc1ccccc1	-7
O=C(Nc1nnc(-c2cccnc2)o1)c1ccccc1Cl	-2
CC1(C)CC2CC(C)(CN2C(=O)c2ccccc2)C1 (configuration not stated)	31
O=C(O)c1ccc2c(c1)CCC2	17
CCOc1ccccc1-c1nc(CN2CCCC2c2nccs2)c(C)o1 (configuration not stated)	24
COc1ccc2c(c1)c1nc3n(c(=O)c1n2CC(=O)Nc1cc(C)[nH]n1)CCS3	6
Cc1ccc(OCCNC(=O)Cc2ccc(F)cc2)cc1	15
CC1CN(c2ccc([N+](=O)[O-])cc2Cl)CCN1S(C)(=O)=O (configuration not stated)	15
CSc1nnc(C)c(=O)n1COC(=O)c1ccccc1	3
Cc1ccc(-n2ncc(Br)c(Br)c2=O)cc1	14
Cn1cc(CNC(=O)C23CC4CC(CC(C4)C2)C3)cn1	15
O=C(CC1C(=O)NCCN1C(=O)Nc1ccccc1)Nc1ccc(F)cc1 (configuration not stated)	10
COC(=O)c1ccc(S(=O)(=O)N2CCCN(Cc3ccc(F)cc3)CC2)n1C	12
Cc1cc(=O)n(C)c(=O)n1CCCCCCOc1ccc([N+](=O)[O-])cc1	15
COc1cc2c(c(OC)c1OC)-c1c(cc3c(c1OC)OCO3)C[C@H](C)[C@@](C)(O)C2	24
CC1(C)CC(=O)CC2(C1)NCC(c1ccccc1)c1c2[nH]c2ccccc12 (configuration not stated)	-2
O=C(CSc1nncs1)Nc1ccc(Cl)cn1	17
CSC(=NCc1ccc(F)cc1)NS(=O)(=O)c1cccs1	8
Cc1ccc(OCC(=O)N/N=C\c2ccc(-c3cccc(C(=O)O)c3)o2)c(C)c1	8
Cc1ccc(-n2c(SCC(=O)NCCN3C(=O)CSC3=O)nnc2-c2ccccc2)cc1	13
Cc1cccc(Nc2nc(N)c([N+](=O)[O-])c(NCc3ccccc3)n2)c1	8
COC(=O)CNC(=O)c1ccc(F)cc1	16
Cc1ccc(NC(=O)Cn2nnc(-c3ccccc3-n3cnnn3)n2)c(C)c1	16

(cont.)
SMILES	Biofilm kill mix
CCOC(=O)c1[nH]c(C)c(/C(O)=C2\C(=O)C(=O)N(CCCN3CCOCC3)C2c2cccs2)c1C (configuration not stated)	3
COc1ccc(-n2cc(CNC(C)c3ccncn3)c(-c3cccc(F)c3)n2)cc1 (configuration not stated)	14
Cc1ccc(NC(=O)CN(C)C(=O)Cn2ccsc2=N)cc1	5
O=C(O)Cc1ccc(Oc2ncc(C(F)(F)F)cc2Cl)cc1	2
O=C(CC1CCCCC1)NCc1ccco1	9
CC(c1n[nH]c(=S)n1-c1ccc(F)cc1)N1CCCCC1 (configuration not stated)	1
O=C(CSCc1ccccc1Cl)N/N=C/c1ccco1	12
CCOC(=O)c1c(NC(=O)CSC2=NN3CCCC(=O)N=C3S2)sc2c1CCCCC2	8
CCCN1C(=O)SC(CC(=O)Nc2ccccc2C)C1=O (configuration not stated)	3
CCN(CC)c1ccc(C=NCCc2ccc(S(N)(=O)=O)cc2)cc1	12
CC(=O)Nc1ccc(S(=O)(=O)/N=C2\C(=O)c3ccccc3C([O-])=C2n2cc[n+](-c3ccccn3)c2)cc1	18
COc1cc2c(cc1OC)CN(C(=O)c1sc(-c3cnccn3)nc1C)CC2	21
CCC(=O)Nc1cccc(NC(=S)NC(=O)c2cccs2)c1	15
Cc1ccccc1NC(=O)c1ccc(S(=O)(=O)C(F)F)cc1	17
COC(=O)C1C(c2ccc(OC)cc2)C(C(=O)OC)S(=O)(=O)C(CCN2CCCCC2)S1(=O)=O (configuration not stated)	6
COc1ccc(Nc2c3c(nc4c(-c5ccccc5)c(C)nn24)CCC3)cc1	15
Cc1ccc(C(=O)NN2C(=O)/C(=C/c3cn(C)c4ccccc34)SC2=S)cc1	14
O=C1Cc2ccccc2C(=O)N1OCc1ccc(Cl)cc1Cl	11

Some of the compounds tested; rates above refer to the full screens.
